Compound activity (PubChem BioAssay)
AF4-AF9 inh: inhibitors of human MLL-AF4/AF9 interaction; P42568; AlphaScreen, biotin-AF4 peptide binding to FLAG-AF9; inhibition, % at 10 µM; actives 0.47% (n = 350,000); AID 651704;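 active means every replicate reaching a set inhibition limit, whatever the replicate mean, cut at about 25% in these data; inconclusive means mean inhibition reaches that limit but some replicates miss it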;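 further: 0% = plate neutral control median and 100% = total signal loss; the record names both 10 and 1 µM as test concentration; the first replicate is given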
Target sequence (P42568 whole entry, looked up): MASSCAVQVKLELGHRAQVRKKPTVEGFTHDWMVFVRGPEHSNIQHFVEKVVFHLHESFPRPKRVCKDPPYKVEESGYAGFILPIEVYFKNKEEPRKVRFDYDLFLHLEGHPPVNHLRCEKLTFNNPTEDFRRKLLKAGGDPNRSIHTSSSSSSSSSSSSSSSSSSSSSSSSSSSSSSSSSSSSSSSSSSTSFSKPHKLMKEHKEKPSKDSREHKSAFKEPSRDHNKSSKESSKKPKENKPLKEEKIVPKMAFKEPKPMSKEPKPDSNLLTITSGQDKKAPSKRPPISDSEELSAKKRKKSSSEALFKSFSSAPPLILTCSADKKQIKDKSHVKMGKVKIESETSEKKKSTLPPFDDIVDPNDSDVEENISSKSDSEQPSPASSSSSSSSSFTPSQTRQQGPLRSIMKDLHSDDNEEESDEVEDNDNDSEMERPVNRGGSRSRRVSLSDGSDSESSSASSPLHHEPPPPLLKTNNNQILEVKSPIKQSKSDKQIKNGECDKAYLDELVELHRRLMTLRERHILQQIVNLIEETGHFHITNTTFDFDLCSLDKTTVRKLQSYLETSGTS
Ecoli rRNA inh: inhibitors of bacterial rRNA selective over humanized ribosomes; E. coli WT GFP vs humanized-ribosome RFP mutants, fluorescence, 24 h; hits give low values; DMSO median 0, no signal -100; AID 720706; actives 1.6% (n = 350,000); GFP signal change (wild-type ribosome), % (test concentration not listed);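 active means significant combined selectivity score with lowered wild-type GFP, culture density cut under 30%, mutant RFP and density less affected; inactive means any of these conditions unmet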; further: one replicate is shown; some compounds called inactive have numbers as strong as hits
FGF22 binding: FGF22 (human) thermal shift binding; Q9HCT0; recombinant FGF22 thermal shift, SYPRO orange fluorescence; percent of sucrose octasulfate shift, DMSO zero; calls only at 9.99 µM; actives 1.5% (n = 340,000);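 active means melting point raised past a set limit in the mean and every replicate; inconclusive means no clear call; three in four hits are not shown here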
Target sequence (Q9HCT0 whole entry, looked up): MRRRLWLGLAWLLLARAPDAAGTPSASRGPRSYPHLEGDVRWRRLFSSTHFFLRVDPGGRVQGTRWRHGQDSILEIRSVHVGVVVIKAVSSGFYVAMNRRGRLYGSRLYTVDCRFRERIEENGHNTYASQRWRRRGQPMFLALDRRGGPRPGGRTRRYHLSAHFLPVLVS
Ecoli rRNA inh OD600: also measured in Ecoli rRNA inh; calls as there; OD600 change, %; measured here: OD600 growth;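 optical density of the mix in the first replicate; 0 = DMSO median and -100 = no signal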
Ecoli rRNA inh RFP: also measured in Ecoli rRNA inh; calls as there; RFP signal change, %; measured here: RFP humanized mutant strains;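 first replicate; 0 = DMSO median and -100 = no signal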
* hit, by the source's call; i = inactive; u = inconclusive; & = joins results of further samples. This is a subset; count on the stated rates, not on these rows.

SMILES	AF4-AF9 inh	Ecoli rRNA inh	Ecoli rRNA inh OD600	Ecoli rRNA inh RFP	FGF22 binding
Cc1ccccc1S(=O)(=O)N1CCCCN2[C@H](CO)[C@@H](c3ccc(-c4cccnc4)cc3)[C@@H]2C1	-2.6	-19	-59	9.6	i
COc1ccc(S(=O)(=O)N2CCC3(CC2)CN(Cc2ccccc2OC)[C@@H](CO)c2[nH]c4cc(OC)ccc4c23)cc1	-2.6	-2	3	5.3	i
COc1ccc(OC)c(S(=O)(=O)NCC2CCN(C(=O)C(=O)c3cc4ccccc4o3)CC2)c1	2.7	-7	-6	13	i
O=C(N[C@@H]1CC[C@H](CCNC(=O)C2CCC2)O[C@H]1CO)c1ccncc1	-1.0	0	3	-2.1	i
Cc1cccc(CN2CCN(C3CN(Cc4cn(Cc5ccc(F)cc5)nn4)S(=O)(=O)C3)CC2)c1 (centres undefined)	2.8	-5	-1	-1.7	i
O=C(NCCc1ccccc1)c1cccc(NC(=O)C2CC2)c1	-1.7	-9	-4	-2.5	i
CCCCCCCCN1C(=O)[C@@H](CC(=O)NCCCOCCCC)C[C@@]2(C(=O)OC)C1=C[C@H](C1CCCC1)O[C@@H]2C	-5.3	8	16	-2.7	i
C[C@@H]1CN([C@@H](C)CO)C(=O)c2cccc(NC(=O)NC3CCCCC3)c2O[C@H]1CN(C)CC1CC1	0.3	-5	-1	-2.9	i
CO[C@@H]1CN(C)C(=O)c2ccc(NS(C)(=O)=O)cc2OC[C@@H](C)NC[C@H]1C	-0.8	2	5	-3.0	i
CN(C)c1ncnc2c1ncn2[C@H]1CN(Cc2ccc(F)cc2)C[C@@H](CO)O1	4.3	2	-1	1.9	i
O=C(c1ccccc1)N1CC[C@@H]2[C@@H](CO)Nc3ccc(-c4ccccc4F)cc3[C@@H]21	-4.3	-2	-9	12	i
O=S(=O)(c1cccs1)N1CCCCN2[C@@H](CO)[C@H](c3ccc(C4=CCCC4)cc3)[C@@H]2C1	-0.4	-56	-75	-12	i
CNC[C@@H]1Oc2ncc(-c3ccc(C)cc3)cc2C(=O)N([C@H](C)CO)C[C@@H]1C	5.6	2	11	-2.0	i
O=C(CCN1CCCCC1)NCC[C@@H]1CC[C@H](NC(=O)C2CC2)[C@@H](CO)O1	0.4	1	0	-2.8	i
C[C@H](CO)N1C[C@H](C)[C@H](CN(C)Cc2ccc(C(F)(F)F)cc2)OCCCC[C@H](C)Oc2ccc(NS(=O)(=O)c3ccc(Cl)cc3)cc2C1=O	1.5	3	0	7.1	i
C[C@@H]1CCCCO[C@H](CN(C)C(=O)Cc2ccccc2)[C@H](C)CN([C@H](C)CO)C(=O)c2cc(NS(=O)(=O)c3ccc(Cl)cc3)ccc2O1	-2.0	-2	-1	1.5	i
CC(C)NC(=O)N1[C@H](C#N)[C@@H](c2ccc(-c3ccc(F)cc3)cc2)[C@@H]1CO	-0.5	-4	-44	16	i
CC(C)NC(=O)Nc1ccc2c(c1)CC(=O)N([C@H](C)CO)C[C@@H](C)[C@@H](CN(C)Cc1ccc(Oc3ccccc3)cc1)O2	u	-1	-32	17	i
Cc1cccc(S(=O)(=O)N2CCCCN3[C@@H](CO)[C@H](c4ccc(-c5cccnc5)cc4)[C@@H]3C2)c1	-0.7	-8	-20	1.4	i
COc1ccc(NC(=O)N(C)C[C@H]2Oc3ccc(NS(C)(=O)=O)cc3CC(=O)N([C@@H](C)CO)C[C@@H]2C)cc1	-3.2	4	14	-2.3	i
CCOC1=C2CN(S(=O)(=O)c3ccc(C)cc3)[C@H](c3cccc(Cl)c3)C[C@@H]2N(S(=O)(=O)c2ccccc2[N+](=O)[O-])[C@H](c2ccccc2)C1	0.7	-11	-1	2.1	i
O=C(C[C@@H]1C=C[C@@H](NC(=O)c2ccccc2)[C@H](CO)O1)NCc1ccncn1	0.1	1	0	-2.0	i
O=C(Cc1ccccn1)N[C@@H]1CC[C@H](CCNC(=O)c2cc(Cl)cc(Cl)c2)O[C@@H]1CO	0.1	-1	1	1.1	i
COc1ccc2c3c(n(C)c2c1)[C@@H](CO)N(CC1CC1)CC31CCN(C(=O)CN2CCOCC2)CC1	1.6	2	13	-3.5	i
O=C(C[C@@H]1C[C@@H]2c3cc(NC(=O)NC4CCCCC4)ccc3O[C@@H]2[C@@H](CO)O1)NCc1cccnc1	-0.2	8	10	0.7	i

Next part
SMILES	AF4-AF9 inh	Ecoli rRNA inh	Ecoli rRNA inh OD600	Ecoli rRNA inh RFP	FGF22 binding
Cc1noc(C)c1C(=O)N(C)C[C@@H]1OCc2ccccc2-c2c(n(C)c3ccccc23)C(=O)N([C@@H](C)CO)C[C@@H]1C	-2.2	0	4	-3.0	i
O=C(CN1CCOCC1)NCC[C@@H]1CC[C@@H](NS(=O)(=O)c2ccc(F)cc2)[C@@H](CO)O1	-1.9	2	-7	-0.7	i
C[C@@H]1CN([C@@H](C)CO)C(=O)Cc2cc(NS(=O)(=O)c3ccccc3)ccc2O[C@@H]1CN(C)C(=O)Nc1ccccc1	-5.4	1	5	1.3	i
COc1cccc(-c2ccc3c(c2)O[C@@H](CN(C)C)[C@@H](C)CN([C@H](C)CO)S3(=O)=O)c1	-0.1	2	-5	0.0	i
COc1ccc(C#Cc2ccc3c(c2)[C@@H]2[C@@H](CCN2S(=O)(=O)c2cccc(OC)c2)[C@@H](CO)N3C)cc1	0.4	-1	7	3.8	i
Cc1ccc(S(=O)(=O)N[C@@H]2CC[C@H](CCn3cc(-c4ccccc4F)nn3)O[C@@H]2CO)cc1	0.4	-3	-12	6.1	i
C[C@@H]1CCCCO[C@@H](CN(C)S(C)(=O)=O)[C@H](C)CN([C@@H](C)CO)C(=O)c2cc(NS(=O)(=O)c3ccc(Cl)cc3)ccc2O1	-1.4	-3	-5	0.5	i
C[C@H]1CNC(=O)c2c(C(=O)Nc3ccc(CNC(=O)OC(C)(C)C)cc3)ncn21	2.1	-25*	-19*	-4.1*	i
CN1CCn2cnc(C(=O)Nc3ccc(CNC(=O)OC(C)(C)C)cc3)c2C1=O	0.6	-17	-6	-3.1	i
C[C@H](CO)N1C[C@H](C)[C@H](CN(C)C(=O)c2ccccn2)Oc2ncc(-c3ccc(F)cc3)cc2C1=O	-1.6	2	7	-2.8	i
C[C@H](O)C#Cc1ccc2c(c1)O[C@@H](CN(C)C)[C@H](C)CN([C@H](C)CO)S2(=O)=O	-2.9	-2	8	-2.4	i
C[C@H]1CN([C@@H](C)CO)C(=O)c2cc(NC(=O)Nc3ccc4c(c3)OCO4)ccc2O[C@H]1CN(C)S(=O)(=O)c1ccc(F)cc1	0.8	-3	0	3.5	i
Cc1noc(C)c1S(=O)(=O)Nc1cccc2c1O[C@H](CN(C)S(C)(=O)=O)[C@H](C)CN([C@@H](C)CO)C2=O	-0.1	4	7	-0.1	i
CCC(C(=O)NC(C)(C)C)n1c(-c2ccc(C)cc2)nc2ccccc21 (centres undefined)	0.9	-8	-28	-0.7	i
COc1ccc(NC(=O)N(C)C[C@@H]2Oc3c(NC(=O)Nc4cccc5ccccc45)cccc3C(=O)N([C@@H](C)CO)C[C@@H]2C)cc1	7.4	-2	-3	3.4	i
CCOc1ccccc1NC(=O)C1CCCN1S(=O)(=O)c1ccc2c(c1)C(C)(C)C(=O)N2C (centres undefined)	-1.6	-5	-9	2.4	i
COc1ccc(CN(C)C[C@@H]2OCCCC[C@H](C)Oc3ccc(NC(=O)Nc4cccc5ccccc45)cc3C(=O)N([C@H](C)CO)C[C@@H]2C)cc1	-6.0	-19	-33	6.0	i
C[C@@H]1CN([C@H](C)CO)C(=O)c2cccc(NC(=O)c3cnccn3)c2O[C@@H]1CN(C)C(=O)Nc1cccc2ccccc12	-1.3	0	9	4.9	i
O=C(Nc1ccccc1)N1C[C@H]2[C@@H](c3ccccc31)[C@@H](CO)N2Cc1cocn1	-4.4	4	10	4.9	i
CCc1nc2c(OCc3ccc(C(=O)N(C)C)cc3)cccn2c1N(C=O)Cc1ccccc1	0.4	-1	1	-1.1	i
COc1ccc(-c2ccc3c(c2)O[C@@H](CN(C)C(C)=O)[C@@H](C)CN([C@@H](C)CO)S3(=O)=O)cc1	-1.7	-5	-5	2.4	i
CO[C@@H]1CN(C)C(=O)c2cc(NC(=O)c3ccno3)ccc2OC[C@H](C)N(S(C)(=O)=O)C[C@H]1C	-7.5	3	4	-0.7	i
C[C@H]1CN([C@@H](C)CO)C(=O)CCCn2cc(nn2)CO[C@H]1CN(C)C(=O)Nc1cccc(C(F)(F)F)c1	-1.4	-3	-7	-0.4	i
Cc1noc(C)c1NC(=O)N1C[C@H](O)COC[C@H]2O[C@H](CC(=O)N3CCc4ccccc4C3)CC[C@@H]21	-1.7	5	9	0.6	i
C[C@@H]1CN([C@@H](C)CO)C(=O)c2cc(Br)cnc2O[C@H]1CN(C)C(=O)c1ccc2c(c1)OCO2	-5.4&0.6	5&3	4&5	1.7&-1.8	i

Entries of single compounds, looked up by structure. Order of screens: AF4-AF9 inh, Ecoli rRNA inh, Ecoli rRNA inh OD600, Ecoli rRNA inh RFP, FGF22 binding
COc1ccc(OC)c(S(=O)(=O)NCC2CCN(C(=O)C(=O)c3cc4ccccc4o3)CC2)c1 reads 2.7, -7, -6, 13, i
CCOc1ccccc1NC(=O)C1CCCN1S(=O)(=O)c1ccc2c(c1)C(C)(C)C(=O)N2C (centres undefined) reads -1.6, -5, -9, 2.4, i

Other entries
SMILES	AF4-AF9 inh	Ecoli rRNA inh	Ecoli rRNA inh OD600	Ecoli rRNA inh RFP	FGF22 binding
C[C@H](CO)N1C[C@H](C)[C@H](CN(C)CC2CC2)Oc2ccc(NC(=O)Cc3cn(C)c4ccccc34)cc2CC1=O	9.3	1	5	-0.7	i
CCCN1C[C@@H](C)[C@@H](OC)CN(C)C(=O)c2ccc(NC(=O)c3ccccc3F)cc2OC[C@H]1C	-0.4	3	-3	-1.5	i
C[C@H](CO)N1C[C@H](C)[C@H](CN(C)S(=O)(=O)c2cccs2)Oc2ccc(NC(=O)Nc3ccc(C(F)(F)F)cc3)cc2CC1=O	-0.3	4	4	0.6	i
CCC(=O)Nc1ccc2c(c1)C(=O)N(C)[C@@H]1CC[C@H](CC(=O)N[C@@H](C)c3ccccc3)O[C@@H]1CO2	1.9	1	2	-1.0	i
COc1cccc(-c2cnc(C(O)c3ccc(Cl)cc3C)[nH]2)c1 (centres undefined)	9.2	10	-23	5.2	i
O=C(CC1CC1)N1CC[C@@H]2[C@H](CO)Nc3ccc(-c4ccccc4)cc3[C@@H]21	-4.3	-5	1	1.6	i
Cc1noc(C)c1C(=O)OCC(=O)Nc1cccc(F)c1	-4.7	-8	-11	-0.4	i
CC=Cc1ccc2n(c1=O)C[C@@H]1[C@@H](CO)[C@H](C(=O)NCc3ccccc3)[C@H]2N1S(C)(=O)=O (mixture of isomers)	-0.4	3	-1	-0.6	i
O=C(c1ccc(F)cc1)N1CCCCN2[C@H](C1)[C@@H](c1ccc(C#CC3(O)CCCC3)cc1)[C@@H]2CO	-4.5	1	-2	6.0	i
CNC[C@H]1OCCCC[C@@H](C)Oc2ccc(NS(=O)(=O)c3ccc(C)cc3)cc2C(=O)N([C@H](C)CO)C[C@H]1C	5.4	4	2	0.0	i
COc1ccc(CN2[C@@H](CO)[C@@H]3c4ccccc4N(C(=O)NC(C)C)C[C@@H]32)cc1	-5.1	7	16	0.6	i
CCN1[C@@H]2c3ccc(-c4cccc(F)c4)c(=O)n3C[C@H]1[C@H](CO)[C@H]2C(=O)NCCCN(C)C	-4.7	1	3	-1.8	i
Cc1ccc(S(=O)(=O)N(C)C[C@@H]2OCCCC[C@H](C)Oc3ccc(NC(=O)Nc4ccccc4)cc3C(=O)N([C@H](C)CO)C[C@H]2C)cc1	2.6	6	10	0.3	i
O=C(NC(c1ccc(Cl)cc1)c1ccsc1)C1CCN(Cc2ccc(Oc3ccccc3)cc2)CC1 (centres undefined)	2.1	1	6	8.1	i

Among those listed so far, seven have a Cl atom.
SMILES	AF4-AF9 inh	Ecoli rRNA inh	Ecoli rRNA inh OD600	Ecoli rRNA inh RFP	FGF22 binding
C[C@H](CO)N1C[C@H](C)[C@H](CN(C)Cc2ccc(C(F)(F)F)cc2)OCCCC[C@H](C)Oc2ccc(NS(=O)(=O)c3ccc(Cl)cc3)cc2C1=O	1.5	3	0	7.1	i
C[C@@H]1CCCCO[C@H](CN(C)C(=O)Cc2ccccc2)[C@H](C)CN([C@H](C)CO)C(=O)c2cc(NS(=O)(=O)c3ccc(Cl)cc3)ccc2O1	-2.0	-2	-1	1.5	i
CCOC1=C2CN(S(=O)(=O)c3ccc(C)cc3)[C@H](c3cccc(Cl)c3)C[C@@H]2N(S(=O)(=O)c2ccccc2[N+](=O)[O-])[C@H](c2ccccc2)C1	0.7	-11	-1	2.1	i
O=C(Cc1ccccn1)N[C@@H]1CC[C@H](CCNC(=O)c2cc(Cl)cc(Cl)c2)O[C@@H]1CO	0.1	-1	1	1.1	i
C[C@@H]1CCCCO[C@@H](CN(C)S(C)(=O)=O)[C@H](C)CN([C@@H](C)CO)C(=O)c2cc(NS(=O)(=O)c3ccc(Cl)cc3)ccc2O1	-1.4	-3	-5	0.5	i
COc1cccc(-c2cnc(C(O)c3ccc(Cl)cc3C)[nH]2)c1 (centres undefined)	9.2	10	-23	5.2	i
O=C(NC(c1ccc(Cl)cc1)c1ccsc1)C1CCN(Cc2ccc(Oc3ccccc3)cc2)CC1 (centres undefined)	2.1	1	6	8.1	i
